StopGo RLuc – Primary qHTS Assay for Foot and Mouth Disease Virus Antivirals against NCGC Sytravon and CBC Compound Libraries: Renilla Luciferase Signal | HEK cells with a luciferase reporter of 2A StopGo recoding | Potency, µM (series often up to 57.5 µM), for inactives: top-dose signal change, negative = less light | hit rate 0.32% among 120,000; active means well fitted falling curve with a large enough effect; inconclusive means small, poorly fitted or top-dose-only effect; inactive means no such curve, though single readings can be large or run the other way; note: nearly all actives have a fitted effect of over 55% in size; overnight with compound
StopGo FLuc – Primary qHTS Assay for Foot and Mouth Disease Virus Antivirals against NCGC Sytravon and CBC Compound Libraries: Firefly Luciferase Signal; HEK cells with a luciferase reporter of 2A StopGo recoding; Potency, µM (top dose mostly 57.5 µM), without a hit: top-dose signal change, negative = less light; hit rate 0.23% among 120,000; AID 1745856, 2022; active = well fitted falling curve with a large enough effect; inconclusive = small, poorly fitted or top-dose-only effect; inactive = no such curve, though single readings can be large or run the other way; note: nearly all actives have a fitted effect of over 60% in size; overnight with compound
An asterisk follows results filed as active; ? = inconclusive; [ ] = another dose, or the depositor's remark. % is set by controls: 0 for no effect and ±100 for the full control effect; potency is the fitted concentration of half-maximal effect. Some of the compounds tested; the hit share may differ from the screen's.

Start of the data: the first three records (preview)
SMILES	StopGo RLuc	StopGo FLuc
Cc1cc(Nc2cccc(F)c2)nc(-c2ccccc2)n1	12%	55%[activator]
COc1ccc(Nc2nc3ccccc3nc2NS(=O)(=O)c2ccc(C)cc2)cc1	97%[activator]	13%
O=C(Cn1c(=O)nc(-c2ccccc2F)c2cc(Cl)ccc21)NCCCc1ccccc1	-4%	-18%

Main list, from the first entry:
SMILES	StopGo RLuc	StopGo FLuc
Cc1cc(Nc2cccc(F)c2)nc(-c2ccccc2)n1	12%	55%[activator]
COc1ccc(Nc2nc3ccccc3nc2NS(=O)(=O)c2ccc(C)cc2)cc1	97%[activator]	13%
O=C(Cn1c(=O)nc(-c2ccccc2F)c2cc(Cl)ccc21)NCCCc1ccccc1	-4%	-18%
Cc1nc(N2CCN(C)CC2)c(C#N)c2c1CCCC2	7%	-5%
C=CCNC(=O)NC(=O)CN(C)Cc1ccc(-c2ccc(Br)cc2)o1	-18%	-2%
O=C(NCc1ccccc1Cl)C(=O)NCC(c1ccc2c(c1)OCO2)N1CCOCC1 (stereo not given)	70%[activator]	-19%
CCNC(=O)c1cnc2sc(N3CCCCCC3)nn2c1=O	-1%	31%[activator]
COC(=O)c1ccccc1NC(=O)c1cn2c3c(ccc(Cl)c3c1=O)OC(C)C2 (stereo not given)	-12%	-13%
COc1ccc(N(CC(=O)NCCc2ccccc2)S(=O)(=O)c2ccccc2)c(OC)c1	110%[activator]	-4%
NC(=O)c1c(NC(=O)c2nc(SCc3ccccc3F)ncc2Cl)sc2c1CCCC2	-2%	-12%
CCOc1ccc(-c2cc(C(=O)NCCc3ccc(Cl)cc3)c3ccccc3n2)cc1	20%	34%[activator]
CCC12CN3CC(CC)(CN(C1)C3c1ccco1)C2=O (stereo not given)	5%	11%
Cc1ccccc1CN1CCN(C(=O)c2sc(-c3ccc(F)cc3)nc2C)CC1	-13%	4%
O=C(CCN1CCN(c2ccccn2)CC1)Nc1ccc(F)c(F)c1	-9%	-3%
COc1cc(/C=C/c2nc3ccccc3s2)ccc1OC(F)F	13%	143%[activator]
O=C(NCCc1ccccc1)c1n[nH]c(=O)c2ccccc12	-3%	0%
C/C(=N/Nc1ccc(Cl)c(Cl)c1)c1ccc(Cl)c(Cl)c1Cl	-11%	-17%
O=C1/C(=C/c2ccccc2Br)CCc2ccccc21	21%	157%[activator]
COCCn1cnnc1SCc1ccc(Br)cc1	11%	11%
CC(=O)c1cccc(NC(=O)c2c(N3CCCC3=O)c3cc(F)ccc3n2C)c1	-2%	-6%
O=C(CSc1nc(-c2ccccc2)cs1)Nc1ccc(OC(F)F)cc1	46%[activator]	79%[activator]
CCOc1ccc(NS(=O)(=O)c2ccc3[nH]cc(C(=O)N4CCCC4)c(=O)c3c2)cc1	-15%	?
CCOc1ccccc1CNC(=O)Cn1c(=O)c2cccn2c2ccc(F)cc21	-7%	-14%
CCc1ccc(C(=O)Nc2ccccc2C#N)s1	7%	150%[activator]
COc1c(C)cccc1C(=O)Nc1ccc2oc(=O)ccc2c1	11%	178%[activator]
CCOc1cccc(/C=C/c2ccc3cccc(O)c3n2)c1O	?	124%[activator]
COc1ncccc1CNC(=O)Cc1ccccc1Cl	8%	0%
CC1CCc2c(sc(NC(=O)c3ccccc3)c2C(=O)Nc2ccccc2)C1 (stereo not given)	6%	7%
CC(C)n1c(SCc2ccccc2Cl)nc2c1c(=O)[nH]c(=O)n2C	13%	14%
Cc1cccc(NC(=O)CSc2nnc(CNC(=O)c3cccc(C)c3)n2-c2ccccc2)c1	-7%	-11%
Cc1ccc(C)c(NC(=O)c2ccc(=O)n(Cc3ccc(F)cc3)c2)c1	2%	17%
O=C(NC1CCCCC1)c1[nH]c2ccccc2c1Cl	-6%	168%[activator]
COc1ccc2c(C)c(CCC(=O)NC3CCS(=O)(=O)C3)c(=O)oc2c1 (stereo not given)	-4%	10%
CCc1ccc(-c2cn3c(n2)sc2cc(C(=O)NCC(C)c4ccccc4)ccc23)cc1 (stereo not given)	-12%	13%
CCCn1c(C)c(C(=O)OCc2ccccc2)c2cc(O)ccc21	21%	107%[activator]
Cc1ccc(CCNC(=O)c2cc3n(n2)CCCN(Cc2ccc(C)cc2)C3=O)cc1	-12%	-7%
COc1cc(C2C(C(=O)OC(C)C)=C(C)Nc3nc4ccccc4n32)cc(OC)c1O (stereo not given)	-8%	9%
COc1ccccc1/C=N/OCc1ccccc1C#N	7%	160%[activator]
CSc1cccc(NC(=O)C2CCN(c3ncnc4c3nc3n4CCCCC3)CC2)c1	-2%	3%
COC(=O)c1ccc2c(=O)n(CCCCCC(=O)NCc3ccc(OC)cc3)c(=O)[nH]c2c1	49%[activator]	-6%
CCOCCCNC(=O)c1cn(CC)c2ccc(S(=O)(=O)N3CCc4ccccc4C3)cc2c1=O	-8%	-22%
Cc1ccc(C(=O)Oc2cccc(C)c2C)cc1I	9%	0%
COCC(C)n1c(C)cc(C(=O)CSc2nnc(-c3ccoc3C)n2-c2ccccc2)c1C (stereo not given)	0%	-15%
CN(C)c1cccc(C(=O)Nc2ccc(CC#N)cc2)c1	23%	116%[activator]
CN1CCN(c2c([N+](=O)[O-])cnc3ccc(Br)cc23)CC1	-18%	-12%
COc1ccc(NC(=O)c2oc3ccc(S(=O)(=O)N4CCCCC4)cc3c2C)cc1Cl	-10%	-13%
CCOc1ccccc1-c1noc(CSc2nnc(-c3ccccc3)n2-c2ccc(OC)cc2)n1	-7%	-18%
Cc1ccc(N2CCN(c3nc4ccc(C(=O)c5ccccc5)cc4n4cnnc34)CC2)c(C)c1	-16%	-23%
CCc1c(C(C)=O)oc2ccccc12	13%	0%
Cc1nc(N2CCC(C(=O)Nc3ccc(Br)cc3F)CC2)c2c(C)c(C)oc2n1	-7%	1%

(listing goes on)
SMILES	StopGo RLuc	StopGo FLuc
Cc1cccc(C(=O)N2CCNC(=O)C2CC(=O)Nc2ccc(F)cc2)c1 (stereo not given)	4%	2%
COc1ccc(-c2cc(=O)c3cc(C)ccc3o2)cc1	45%[activator]	136%[activator]
CCOc1ccc(C2c3c(oc4ccc(C)cc4c3=O)C(=O)N2CCCN2CCOCC2)cc1 (stereo not given)	?	63%[activator]
O=C(CSc1nc2cc(Cl)ccc2s1)NC(c1ccccc1)c1ccccc1	-2%	-8%
CC(C)=CCC1C(=O)N(c2ccccc2)N(c2ccccc2)C1=O	-10%	-5%[11.5 µM]
CCCCC(=O)Nc1oc2c(C)cccc2c(=O)c1-c1ccc2c(c1)OCO2	3%	44%[activator]
COc1ccc(C(=O)Oc2c(C)cccc2C)cc1I	14%[1.06 µM]	-4%
Oc1ccc2ccccc2c1CN(Cc1ccccc1)Cc1ccccc1	1%	21%
Cc1ccc2c(c1)N(CC(=O)c1c(C)n(C)c3ccccc13)C(=O)CO2	-13%	-9%
O=C(COc1ccccc1)Nc1ccc2oc(-c3cccc(Cl)c3)nc2c1	-3%	69%[activator]
CCN1C(=O)C(O)(c2c[nH]c3ccccc23)c2cc(Br)ccc21 (stereo not given)	-12%	-18%
Cc1cc2oc(C(=O)Nc3sc4c(c3C(=O)NCC3CCCO3)CCC4)cc(=O)c2cc1C (stereo not given)	-10%	-27%
O=C(Nc1nc(-c2ccc(Cl)s2)cs1)C1CC1	?	17%
CN(CCO)C(=O)c1nc(-c2cccc3[nH]ccc23)no1	45%[activator]	177%[activator]
O=C(Oc1c2c3c(noc3c3ccccc13)C(Oc1ccccc1)=CC2=O)c1cccc(F)c1	3%	85%[activator]
C/C=C/C(=O)OC(C)C(=O)Nc1ccccc1SC (stereo not given)	-2%	11%
O=C(c1ccccc1)C1OC1c1ccc(F)cc1 (stereo not given)	-1%	69%[activator]
COc1ccccc1NC(=O)CSc1nc(-c2cccc(Cl)c2)nc2c1Cc1c(CO)cnc(C)c1O2	-3%	6%
N#C/C(=C/c1ccccc1OCC(=O)O)C(=O)Nc1ccc(N2CCOCC2)cc1	3%	16%
COc1c2occc2cc2ccc(=O)oc12	-4%	-11%

An excerpt from above in order of length of the SMILES, ascending.
SMILES	StopGo RLuc	StopGo FLuc
COc1c2occc2cc2ccc(=O)oc12	-4%	-11%
O=C(c1ccccc1)C1OC1c1ccc(F)cc1 (stereo not given)	-1%	69%[activator]
O=C(Nc1nc(-c2ccc(Cl)s2)cs1)C1CC1	?	17%
CCN1C(=O)C(O)(c2c[nH]c3ccccc23)c2cc(Br)ccc21 (stereo not given)	-12%	-18%
O=C(Oc1c2c3c(noc3c3ccccc13)C(Oc1ccccc1)=CC2=O)c1cccc(F)c1	3%	85%[activator]

Later entries:
SMILES	StopGo RLuc	StopGo FLuc
O/N=C/c1cn(-c2ccccc2)nc1-c1ccc(-c2ccccc2)cc1	19%	96%[activator]
O=C(NCCc1ccc(Cl)cc1)c1ccc(Cn2c(=O)[nH]c3ccccc3c2=O)cc1	-4%	-18%
Cc1cc2nc(C)c(=O)n(CCC(=O)NCCN3CCN(c4cccc(Cl)c4)CC3)c2cc1C	-17%	-15%
CC(C)(C)OC(=O)N1CCC(c2c(C(=O)N3CCN(c4cccc(Cl)c4)CC3)cnn2-c2cccc(Cl)c2)CC1	0%	4%
NC(=O)CCS(=O)(=O)CCN1CCCC1c1cccc(F)c1 (stereo not given)	-4%	3%
CC(C)NC(=O)c1cccc(Cl)c1	0%	4%
COc1cccc(CNC(=O)CSC2=NC3(CCCCC3)N=C2c2cccs2)c1	40%[activator]	-3%
Cc1cccc(OCc2nc(C)c(C(=O)Nc3cc(C)ccc3C)s2)c1	4%	1%
Cc1cccc(Cn2cc(CN3CC(N4CCN(CCOC(=O)c5cc6ccccc6o5)CC4)CS3(=O)=O)nn2)c1 (stereo not given)	29%	110%[activator]
CCCCOC(=O)c1ccc(Nc2nc3ccccc3nc2NS(=O)(=O)c2ccccc2)cc1	8%	8%
CCN1CCN(C(=O)c2c(-c3ccccc3Cl)noc2C)CC1	-2%	-7%
O=C(O)C(c1c[nH]c2cc(Cl)ccc12)N1CCN(CCNc2cc(=O)oc3ccccc23)CC1 (stereo not given)	-13%	-16%
CCOc1c(Br)cc(/C=C/C(=O)c2cccc(OC)c2)cc1OC	2%	7%
Cc1ccc(C)c(-c2nn(CC(=O)N3CCCCC3)c(=O)c3ccccc23)c1	-1%	11%
O=C(Nc1cccc2cccnc12)c1cccc(C(=O)Nc2cccc3cccnc23)c1	13%	156%[activator]
CCOc1ccc(-c2nc(NC(=O)c3cc(OC)c(OC)c(OC)c3)sc2C)cc1	-3%	-3%
CCOCCn1c(N2CCN(Cc3cccc(C)c3)CC2)nc2c1c(=O)[nH]c(=O)n2C	5%	12%
O=C1CCCc2cc(S(=O)(=O)N3CCCC(C(=O)N4CCOCC4)C3)ccc2N1 (stereo not given)	5%	13%
CC(C)(C)n1ncc2c1NC(=O)CC21C(=O)Nc2ccc(Br)cc21 (stereo not given)	-10%	-6%
Cn1cc(C(=O)NCCNC(=O)CC2CCCCC2)c2ccccc21	-4%	-2%
C/C(=N\NC(=O)C1CC1)c1ccc(C)o1	10%	36%[activator]

Profiles as entered above. Screens in order: StopGo RLuc	StopGo FLuc
COc1ccccc1NC(=O)CSc1nc(-c2cccc(Cl)c2)nc2c1Cc1c(CO)cnc(C)c1O2 in the list: -3%	6%
CCOCCCNC(=O)c1cn(CC)c2ccc(S(=O)(=O)N3CCc4ccccc4C3)cc2c1=O in the list: -8%	-22%
CCOc1ccc(-c2cc(C(=O)NCCc3ccc(Cl)cc3)c3ccccc3n2)cc1 in the list: 20%	34%[activator]
Cn1cc(C(=O)NCCNC(=O)CC2CCCCC2)c2ccccc21 in the list: -4%	-2%
Cc1ccc(C)c(NC(=O)c2ccc(=O)n(Cc3ccc(F)cc3)c2)c1 in the list: 2%	17%

Compound activity deposited in PubChem BioAssay by National Center for Advancing Translational Sciences (NCATS).
